From PubChem BioAssay
HPGD inh – inhibitors of human 15-hydroxyprostaglandin dehydrogenase (HPGD); AID 894; purified HPGD, NADH fluorescence kinetic, PGE2 substrate; 150,000 tested, 4.3% active; P15428; Potency, µM, inactives show top-dose activity change, negative = inhibition, hits mostly inhibitors; active = well fitted inhibition curve with a large enough effect (not every such curve was filed as active); inconclusive = small, poorly fitted or top-dose-only effect, or another doubt; inactive = no such curve, though single readings can be large or run the other way;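 also: top concentration of the series not given in the record; plate controls included wells without enzyme; inactives centre near -10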
Target sequence (P15428 whole entry, looked up): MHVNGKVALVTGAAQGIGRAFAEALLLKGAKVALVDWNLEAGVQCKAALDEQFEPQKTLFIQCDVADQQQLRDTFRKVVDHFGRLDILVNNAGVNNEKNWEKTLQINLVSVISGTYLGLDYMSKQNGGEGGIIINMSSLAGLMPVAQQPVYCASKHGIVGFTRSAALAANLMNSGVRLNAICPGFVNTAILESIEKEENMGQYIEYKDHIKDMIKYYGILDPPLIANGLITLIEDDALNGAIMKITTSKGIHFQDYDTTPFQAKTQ
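NADH formation kinetics: reaction with 30 uM PGE2 and 1 mM NAD+ (final), 20 nM enzyme, Tris-HCl pH 8 with Tween 20, after 15 min compound preincubation at room temperature. Fluorescence change, last versus first of five reads.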
Numbers without * were called inactive; ? = inconclusive. % is scaled to controls: 0 for no effect and ±100 for the full control effect; potency is read from the fitted curve at half-maximal effect. This is a subset; the hit share may differ from the screen's.

SMILES	HPGD inh
CCC(=O)N/N=C/c1ccc(OS(=O)(=O)c2ccccc2)cc1	-5.3%
CCN(CC)CCN1C(=O)C(=O)/C(=C(/O)c2c(C)[nH]c(C(=O)OC)c2C)C1c1ccc(OC)cc1 (stereo not drawn)	-12.5%
O=C(NCc1ccco1)C(c1ccc(F)cc1)N(CC1CCCO1)C(=O)Cn1nnc2ccccc21 (stereo not drawn)	-9.8%
CCOC(=O)C1CCN(C(=O)CC2C(=O)N(Cc3ccccc3)C(C)c3nc4ccccc4n32)CC1 (stereo not drawn)	-3.5%
Oc1ccc(-c2nc(-c3ccc(F)cc3)c(-c3ccncc3)[nH]2)cc1	?
CN(C)S(=O)(=O)c1cccc(NC(=O)COC(=O)c2ccc3c(c2)OCO3)c1	-5.8%
COc1ccc(/C=N/Nc2nc(N3CCCCC3)nc(N3CCCCC3)n2)cc1[N+](=O)[O-]	-23.6%
Fc1ccc(NC(=S)Nc2ccc(Br)cc2)cc1	1.2%
O=C(O)c1ccccc1SC1CC(=O)N(C2CCCCC2)C1=O (stereo not drawn)	-7.7%
O=C(C1CCCN1C(=O)c1cccs1)N1CCN(Cc2ccc3c(c2)OCO3)CC1 (stereo not drawn)	-1.7%
Cc1cccc(/C=C2/S/C(=N/N=C3\CC4CCC3(C)C4(C)C)NC2=O)c1 (stereo not drawn)	-12.4%
CCC1(C(=O)c2ccccc2)C(c2ccc([N+](=O)[O-])cc2)C1(C(=O)OC)C(=O)OC (stereo not drawn)	-3.9%
O=C(NCC1CCCO1)c1ccccc1-c1nc(-c2ccc(Cl)cc2)no1 (stereo not drawn)	-0.4%
CSc1nc(Sc2ccc(Cl)cc2)c2ccccc2n1	-16.3%
Cc1ccc(C(=O)O)cc1NC(=O)C1CCCN1S(=O)(=O)c1cccc2nsnc12 (stereo not drawn)	-12.8%
COC(=O)c1ccccc1NC(=O)C12CC3CC(C1)CC(n1cnc(Cl)n1)(C3)C2	-21.6%
Cc1ccc(/C=N/NC(=O)c2ccccn2)o1	-16.6%
O=C1CCC/C(=N/NC(=O)c2ccc(CN3c4cccc5cccc(c45)S3(=O)=O)cc2)C1	?
Cc1nnn(C23CC4CC(CC(CC(=O)Nc5ccc(C)c(Cl)c5)(C4)C2)C3)n1	-5.0%
Cc1ccccc1N(C(=O)Cn1nnc2ccccc21)C(C(=O)NCc1ccco1)c1ccncc1 (stereo not drawn)	-1.3%
CC(=O)c1cccc(S(=O)(=O)N(CCCO)Cc2cc3ccc(C)cc3[nH]c2=O)c1	0.3%
Cc1nc(N/N=C/c2ccccc2)nc(N(C)c2ccccc2)c1[N+](=O)[O-]	-11.3%
Cc1cc(NC(=O)COC(=O)COc2cccc3c2OC(C)(C)C3)no1	0.0%
COc1c(F)c(F)c(C(=O)O)c(Nc2ccccc2C)c1F	-2.0%
Fc1ccc(N=C2NN=C(c3cc(F)ccc3F)CS2)cc1	-20.8%

Following part
SMILES	HPGD inh
O=C(NNc1ccccc1[N+](=O)[O-])Nc1ccc(F)cc1	-1.7%
O=C(NCc1cccs1)C1CCCN(S(=O)(=O)c2ccc(Br)s2)C1 (stereo not drawn)	-4.1%
CC(C)c1ccccc1NC(=O)COc1ccc2c(=O)c(Oc3ccc4ccccc4c3)coc2c1	-9.4%
Cc1cc(/C=N/NC(=O)CC2(C)OCCO2)c(C)n1-c1ccc(Cl)c(Cl)c1	?
CC(/C=C/c1ccco1)=N/NC(=O)c1ccccc1Cl	-14.1%
N#Cc1cccc(NC(=O)N2CC3(CCN(C(=O)c4ccco4)CC3)C2)c1	-1.5%
N#Cc1ccc(N/N=C/c2cn(-c3ccccc3)nc2-c2ccccc2)c([N+](=O)[O-])c1	-13.6%
O=C(N/N=C/c1cccc([N+](=O)[O-])c1)c1cccs1	-8.5%
CC(C)(C)C1CCC(C(=O)Nc2ccccc2)CC1 (stereo not drawn)	-12.7%
N#C/C(=C\c1ccc(N2CCOCC2)o1)c1nc2ccccc2[nH]1	-13.6%
Cc1ccccc1NC(=O)c1ccc(NC(=O)c2ccco2)cc1	-12.1%
CCOC(=O)NN1C(=O)c2ccccc2NC1c1ccc(OC)cc1 (stereo not drawn)	?
CC1=C(C(=O)N2CCOCC2)C(c2cccs2)NC(=O)N1 (stereo not drawn)	-8.2%
C=CCNC(=O)CCCCC(=O)NCC=C	-3.6%
CCN(CC)CCN(CC)Cc1ccccc1Br	-5.0%
COc1ccc(NC(=O)CN2CCN(CC(=O)Nc3ccccc3F)CC2)c(OC)c1	-15.6%
Brc1ccc(C=Nc2ccc3c(c2)OCCOCCOCCO3)s1	-7.3%
COc1cccc(NC(=S)N(CCc2c(C)[nH]c3ccc(C)cc23)Cc2cccs2)c1	-17.2%
Cc1ccc(Sc2ncccc2C(=O)O)cc1C	-17.5%
Cc1ccc(-c2n[nH]c(=S)n2/N=C/C=C/c2ccccc2[N+](=O)[O-])cc1	2.82µM*
CCOc1ccc(Nc2oc(Cc3ccccc3)nc2C#N)cc1	-29.9%
COC(=O)c1ccc(NC(=O)CSCc2ccccc2C)cc1	-4.8%
CC(Sc1nc(N)cc(=O)[nH]1)C(=O)Nc1cccc(Cl)c1 (stereo not drawn)	-18.2%
CCCCC(c1nnnn1C1CCCC1)N1CCN(C2CCCC2)CC1 (stereo not drawn)	3.3%
O=C(NCCc1ccc(S(=O)(=O)N2CCCC2)cc1)c1cccs1	-8.2%

In the list so far, these have a nitro group on carbon.
SMILES	HPGD inh
COc1ccc(/C=N/Nc2nc(N3CCCCC3)nc(N3CCCCC3)n2)cc1[N+](=O)[O-]	-23.6%
CCC1(C(=O)c2ccccc2)C(c2ccc([N+](=O)[O-])cc2)C1(C(=O)OC)C(=O)OC (stereo not drawn)	-3.9%
Cc1nc(N/N=C/c2ccccc2)nc(N(C)c2ccccc2)c1[N+](=O)[O-]	-11.3%
O=C(NNc1ccccc1[N+](=O)[O-])Nc1ccc(F)cc1	-1.7%
N#Cc1ccc(N/N=C/c2cn(-c3ccccc3)nc2-c2ccccc2)c([N+](=O)[O-])c1	-13.6%
O=C(N/N=C/c1cccc([N+](=O)[O-])c1)c1cccs1	-8.5%
Cc1ccc(-c2n[nH]c(=S)n2/N=C/C=C/c2ccccc2[N+](=O)[O-])cc1	2.82µM*

The listing continues.
SMILES	HPGD inh
CCn1nnc(NC(=O)c2cccnc2)n1	25.1µM*
O=C1CCC([N+](=O)[O-])C(c2cccc(Br)c2)N1 (stereo not drawn)	-17.3%
NC(=O)C1(N2CCCCC2)CCN(C(=S)Nc2cccc(Cl)c2)CC1	-5.7%
O=C(CSc1ncn(-c2ccccc2)n1)Nc1ccc2c(c1)OCCO2	-12.1%
O=C(CSCc1ccc(Cl)cc1)NN=C1CCCC1	-2.9%
CC1(C)CC(=O)C(C=NCCC2=CCCCC2)=C(O)C1	-11.1%
O=C(O)CCC(=O)Nc1ccc(S(=O)(=O)N2CCCC2)cc1	3.3%
COC(=O)c1ccc(C(NC(=O)OCc2ccccc2)/C(C)=C/[C@@H](C)C(=O)NCc2nc3ccccc3s2)cc1 (stereo partly drawn)	-7.6%
COc1ccc(C(=O)Nc2ccccc2C(=O)NC(C)C)cc1OC	-17.5%
CC1(C)CC(CC(=O)NC(=S)Nc2ccc([N+](=O)[O-])cc2)C(=O)O1 (stereo not drawn)	-25.8%
Cn1c(CNC(=O)c2cccs2)nnc1SCC(=O)Nc1ccc(Cl)cc1	-8.5%
CCCOC(=O)c1ccc(NC(=O)C2C3CCC(C3)C2C(=O)O)cc1 (stereo not drawn)	-10.0%
CSc1nc2ccc3nc(NC(=O)c4ccc(Cl)s4)sc3c2s1	-20.7%
NCCCCCCCCCCN	-10.2%
CCOc1ccc2[nH]c(=O)c(CN(CCO)C(=O)c3ccccc3F)cc2c1	?
CSc1nc2ccc3nc(NC(=O)c4ccccc4)sc3c2s1	?
CC(Sc1ccc(Cl)cc1)C(=O)NCc1ccc2c(c1)OCO2 (stereo not drawn)	-25.9%
Cc1cc(C)nc(Nc2n[nH]c(COc3cccc4ccccc34)n2)n1	-5.5%
Cc1cc([N+](=O)[O-])ccc1NC(=O)C1CCCO1 (stereo not drawn)	-15.3%
CNC(=O)NC(=O)CSc1nc2cc(C(=O)OC)ccc2c(=O)n1-c1ccccc1	-11.5%
CN(/N=C/c1ccncc1)c1cnn(-c2ccc(F)c(Cl)c2)c(=O)c1Cl	-29.8%
CCOC(=O)c1cn(-c2nc(-c3ccc(Cl)cc3)cs2)c2c(F)c(N3CC(C)OC(C)C3)c(F)cc2c1=O (stereo not drawn)	?
CCC(C)(C)n1nnnc1CN(Cc1cc2cc(OC)ccc2[nH]c1=O)C1CCCC1	?
Clc1ccc(OCCN2CCOCC2)cc1Cl	-12.8%
Cc1cccc(N(C(=O)c2sc(C)nc2C)C(C(=O)NCc2ccco2)c2ccccc2)c1 (stereo not drawn)	-5.4%

New compounds follow.
SMILES	HPGD inh
CCOC(=O)C1CCN(C(=O)CCc2ccccc2)CC1	-3.7%
CCOC(=O)c1sc2ccc(S(=O)(=O)N3CCCCC3)cc2c1N	-18.9%
Fc1cnc(N2CCN(c3ccccc3)CC2)nc1N1CCN(c2ccccc2)CC1	?
Cc1ccc(-c2cc(C(=O)NCc3cn(C)nc3C)c3cc(Br)ccc3n2)cc1	-4.5%
Cc1cc(N2CCC(C(=O)NC3CC3)CC2)nc(-c2ccccc2)n1	?
Cn1c(=O)c2[nH]c(-c3ccccc3)c(O)c2n(C)c1=O	?
CC(C)C(=O)Nc1cccc(-c2nc3ccccc3o2)c1	-7.8%
CCCS(=O)(=O)N1CCC(C(=O)NCCc2ccc(OC)c(OC)c2)CC1	-9.0%
CCOc1ccc(C(=O)Nc2nnc(C(C)C)s2)cc1OCC	28.2µM*
CC(=O)Oc1ccc2c(c1)CCC1C2CC[C@]2(C)C(OC(C)=O)CCC12 (stereo partly drawn)	-14.1%
COc1ccc(C(=O)NC(=S)N2CCC(C)CC2)cc1	22.4µM*
O=C(Nc1ccc(F)cc1F)c1noc2c1CCC2	-10.6%
COc1ccc(-c2nc3cnc(Oc4ccccc4)nc3n(Cc3cccs3)c2=O)cc1	-20.7%
CCCNC(=O)N1CCN(C(=O)NCCC)CC1	-7.2%
CCn1c(/C=N/NC(=O)c2ccc(OC)cc2)nc2ccccc21	-28.3%
O=C(c1cccc(-n2cnnn2)c1)N1CCOCC1	0.4%
O=C(Cn1sc2ccccc2c1=O)NC12CC3CC(CC(C3)C1)C2	0.316µM*
CCCCCC(=O)Nc1ccc(N2CCN(CC)CC2)c(Cl)c1	4.6%
CCC(=O)N1CCc2cc(Br)cc(S(=O)(=O)CCC(=O)NCCOC)c21	-7.8%
CC1=C(C(=O)OCc2ccccc2)C(c2cccs2)NC(=O)N1CCCC(=O)O (stereo not drawn)	-12.8%
COc1cccc(C(=O)N(CN2CCCC2=O)c2ccccc2OC)c1	-5.3%
CC(C)COc1ccc(C(=O)Nc2ccccc2[N+](=O)[O-])cc1	-22.8%
Cc1ccc(C)c(S(=O)(=O)N2CC(=O)N(CCc3ccccc3)C(=O)C2)c1	-18.2%
CC(=O)NCCSC(=O)c1ccc(F)cc1	-1.9%
Cc1cc(C)c(C)c(C(=O)CSc2nnc(C)c(=O)[nH]2)c1C	-5.7%

Next section.
SMILES	HPGD inh
CCCC(CCC)C(=O)Nc1ccncc1	5.5%
Cc1cc(C)cc(Oc2ccc(C(F)(F)F)cc2C#N)c1	-9.7%
COc1ccc(CNC(=O)C(C#N)c2nc3ccccc3nc2N2CCN(C)CC2)cc1 (stereo not drawn)	-6.9%
O=C1NC2(Nc3ccccc31)C(=O)Nc1ccccc12 (stereo not drawn)	-25.8%
O=C(COc1ccccc1)N1CCNC1=O	2.3%
CCC(=O)Nc1nc2ccccc2n1CCN1CCOCC1	-0.6%
CC(=O)c1ncnn1CC(=O)c1ccc(Cl)cc1Cl	-17.0%
FC(F)(F)c1ccc(CN2C[C@@H]3C(c4ccc(Cl)nc4)C4(c5cccnc5)CC3(C4)[C@H]2c2ccccc2)cc1 (stereo partly drawn)	-18.2%
O=C(NCC(c1cccnc1)N1CCN(c2ccc(F)cc2)CC1)c1cccc(Cl)c1 (stereo not drawn)	-5.1%
O/N=C1\CCCc2oc3c(c21)CCCC3	-12.3%
CCN(CC)C(=O)CSc1nc(C)cc(-c2cccs2)c1C#N	-28.1%
C/C(=N\NC(=O)CSCc1cccc(Br)c1)c1ccc([N+](=O)[O-])cc1	-4.8%
COCCn1c(=O)[nH]c2cc(C(=O)NCc3ccccc3)ccc2c1=O	-20.2%
COc1cc(N2CCCC2)c(OC)cc1/C=C(/C#N)c1ccc(F)cc1	-3.6%
CN(C)c1ccc(/C=C/c2nc3ccccc3s2)cc1	-12.5%
CC#N	-9.0%
N/C(=N\OC(=O)CCCc1ccccc1)c1cccc([N+](=O)[O-])c1	-14.6%
Cc1nc(CS(=O)c2ccccc2)cc(N2CCOCC2)n1 (stereo not drawn)	-1.6%
CCOC(=O)c1ccc(NC(=O)N2CCN(c3ccccn3)CC2)cc1	-15.4%
O=C(CCc1nc(-c2ccccc2)no1)NCc1cccnc1	-6.7%
S=C(Nc1ccc(Br)cc1)N1CCN(C2CCCCC2)CC1	-1.1%
CCCOc1ccc(N2C(=O)CC(NCc3cccs3)C2=O)cc1 (stereo not drawn)	-5.8%
CC(=O)c1cccc(NC(=O)N2CCCc3ccccc32)c1	-10.0%

Given as labelled records: part of the list above
compound: C/C(=N\NC(=O)CSCc1cccc(Br)c1)c1ccc([N+](=O)[O-])cc1
  HPGD inh = -4.8%

compound: COCCn1c(=O)[nH]c2cc(C(=O)NCc3ccccc3)ccc2c1=O
  HPGD inh = -20.2%

compound: COc1cc(N2CCCC2)c(OC)cc1/C=C(/C#N)c1ccc(F)cc1
  HPGD inh = -3.6%

compound: CN(C)c1ccc(/C=C/c2nc3ccccc3s2)cc1
  HPGD inh = -12.5%
